Screening results as filed in PubChem.
2A Renilla: lowers the Renilla signal of an FMDV 2A StopGo reporter; HEK cells with a luciferase reporter of 2A StopGo recoding; Potency, µM (titrated, usually from 57.5 µM), without a hit: at the top dose signal change, negative = less light; hit rate 0.32% among 120,000; AID 1745857; active means well fitted falling curve with a large enough effect; inconclusive means small, poorly fitted or top-dose-only effect; inactive means no such curve, though single readings can be large or run the other way; also: nearly all actives have a fitted effect of over 55% in size; overnight with compound
StopGo FLuc: FMDV 2A StopGo reporter, firefly signal | hit rate 0.23% among 120,000 | HEK cells with a luciferase reporter of 2A StopGo recoding | Potency, µM (highest dose often 57.5 µM), without a hit: top-dose signal change, negative = less light | AID 1745856; active = well fitted falling curve with a large enough effect; inconclusive = small, poorly fitted or top-dose-only effect; inactive = no such curve, though single readings can be large or run the other way; also: nearly all actives have a fitted effect of over 60% in size; overnight with compound
Starred values were filed as active, the others as inactive; ? = inconclusive; [ ] = dose if it differs, or a comment. % is scaled to controls: 0 for no effect and ±100 for the full control effect; potency is read from the fitted curve at half-maximal effect. Not all compounds are listed. The share of hits here may be higher or lower than overall.

Below each SMILES: 2A Renilla, StopGo FLuc
COc1ccc(NC(=O)Nc2nnc(N3CCCC3)s2)cc1
  -11%, 37%[activator]
CCC1CCCCN1S(=O)(=O)c1cc(C(=O)Nc2ccc(C)c(F)c2)ccc1F (stereo not given)
  ?, ?
Cn1c(-c2ccccc2)c(C(=O)C(=O)NC(C)(C)C)c2ccccc21
  26%, 4%
COc1ccc(CCN2C(=O)CCC2(C)C(=O)NCc2cccnc2)cc1OC (stereo not given)
  -9%, -5%
CCn1cc(C(=O)NCCc2ccccc2)c(=O)c2cc(S(=O)(=O)N(C)C3CCCCC3)ccc21
  -10%, -22%
Cc1ccc(S(=O)(=O)NCC2CCC(C(=O)NCC(=O)N3CCc4ccccc4C3)CC2)cc1 (stereo not given)
  -1%, -8%
CC(C)c1ccc(C(=O)CC2(O)C(=O)N(CN3CCOCC3)c3ccccc32)cc1 (stereo not given)
  87%[activator], 172%[activator]
CC1(C)CCCN(CC(=O)c2c[nH]c3ccccc23)C1
  11%, 28%
Cc1ccccc1Cn1nnc2c(=O)[nH]c(C3CCN(C(=O)c4ccccc4Cl)CC3)nc21
  -11%, -23%
S=C(NCCc1ccccc1)NCc1ccccc1Br
  157%[activator], 76%[activator]
COc1ccc(CCNc2oc(/C=C/c3ccc(OC)c(OC)c3)nc2C#N)cc1
  8%, 1%
Cc1cccc(-c2cc(C(=O)Nc3nccs3)c3ccccc3n2)c1
  -1%, 14%
CCCN1CCS(=O)(=O)N(Cc2cn(Cc3ccc(F)cc3)nn2)C(C(=O)OC)C1 (stereo not given)
  -8%, -3%
CN(CC(=O)NC(C)(C)C)Cc1cccc2cccnc12
  -11%, 11%
CC(=O)c1ccc(N2CCN(S(=O)(=O)c3cc4[nH]c(=O)c(=O)[nH]c4cc3C)CC2)cc1
  -13%, 11%
C#CCNC(=O)CN(C)Cc1ccc(C(F)(F)F)cc1
  -19%, 5%
CCOc1ccc(C2CC(=O)n3nc(-c4ccc(C)cc4)nc3S2)cc1 (stereo not given)
  -10%, -1%
C=C(C)Cn1c(NCC)nc2c1c(=O)n(C)c(=O)n2C
  13%, 27%
CCOc1ccc(NC(=O)c2cc(S(=O)(=O)N3CCC(C)CC3)cn2C)cc1
  -6%, -16%
Cc1ccc(Cl)cc1NC(=O)CN1C(=O)c2ccccc2Sc2ncccc21
  -1%, -20%
Cc1nc2sccn2c1-c1csc(Nc2cccc(Cl)c2C)n1
  35µM*, ?
CCOc1cc(C2C(C(N)=O)=C(C)Nc3ncnn32)cc(Br)c1O (stereo not given)
  -7%, -4%
Cc1ccc(C(=O)C(OC(=O)c2sccc2C)c2ccc(C)cc2)cc1 (stereo not given)
  72%[activator], 33%[activator]
COc1ccc2cc(/C=C(\NC(=O)c3ccccc3)C(=O)NCCO)c(Cl)nc2c1
  -12%, 4%
O=C(Nc1nc(-c2ccc3ccccc3c2)cs1)c1cc[n+]([O-])cc1
  -5%, 56%[activator]
Cc1ccc(C(=O)Nc2ccc(C(=O)O)cc2)cc1S(=O)(=O)Nc1ccccc1
  15%, -4%
CCOC(=O)c1ccc(S(=O)(=O)N2CCC(C(=O)NC3CC(C)(C)NC(C)(C)C3)CC2)cc1
  -9%, -6%
C/C(=N\O)C(C)N(O)C(C)/C(C)=N/O (stereo not given)
  0%, 0%
CC1CC[C@@]2(OC1)OC1CC3C4CC(O)C5CC(O)CCC5(C)C4CCC3(C)C1[C@@H]2C (stereo not given in full)
  -1%, 1%
COc1ccc(NC(=O)c2c(NC(=O)c3ccc(Br)cc3)sc3c2CCCC3)cc1
  ?, ?

Fetched by compound from the list above, 3 records:
Below each SMILES: 2A Renilla, StopGo FLuc
C#CCNC(=O)CN(C)Cc1ccc(C(F)(F)F)cc1
  -19%, 5%
Cc1ccccc1Cn1nnc2c(=O)[nH]c(C3CCN(C(=O)c4ccccc4Cl)CC3)nc21
  -11%, -23%
CN(CC(=O)NC(C)(C)C)Cc1cccc2cccnc12
  -11%, 11%

(next part)
Below each SMILES: 2A Renilla, StopGo FLuc
Cc1c(C(=O)O)oc2ccccc12
  5%, 3%
Cc1ccc(-c2cc(C(=O)NCCCN3CCCC3)c3ccccc3n2)cc1C
  -5%, 31%[activator]
Cc1[nH]c2ccc(C(=O)N3CCNC(=O)C3)cc2c1C
  3%, 14%
O=C(/C(Br)=C/Nc1ccc(Cl)cc1Cl)C(F)(F)F
  6%, 20%
CC1CN(C(=O)Cc2nn(C)c(=O)c3ccccc23)CCO1 (stereo not given)
  -4%, 6%
COc1ccc2nc(SCC(=O)N3N=C(c4ccco4)CC3c3cccs3)[nH]c2c1 (stereo not given)
  39%[activator], 20%
Cc1cc(C)c2c(CN3CCN(c4ccccc4)CC3)cc(=O)oc2c1
  -5%, 0%
Cc1ccc2c(c1)NC(SCC(=O)Nc1cccc(C(F)(F)F)c1)=NS2(=O)=O
  129%[activator], 53%[activator]
Cc1cc(C)cc(N2CCn3c2nc2c3c(=O)n(C/C=C/c3ccccc3)c(=O)n2C)c1
  -8%, -5%
Cc1cc(Nc2cccc(Cl)c2)nc2ccc(NC(=O)c3ccc(F)cc3Cl)cc12
  ?, ?
CC1CCCCN1Cc1c(O)ccc2c(=O)c(-c3ccccc3)coc12 (stereo not given)
  -10%, 26%
Cc1ccc(F)c(NC(=O)Cc2ccsc2)c1
  0%, 81%[activator]
COc1cc(CNC(=O)c2ncoc2-c2cccs2)cc(OC)c1OC
  ?, ?
CCOC(=O)c1nnn(C(CC)C(=O)Nc2ccc(F)cc2)c1C(=O)OCC (stereo not given)
  4%, -9%
O=C(Nc1ccc(Cc2nc3ccccc3s2)cc1)C1CCCC1
  21%, 0%
Cc1noc(/C=C/c2ccccc2F)c1S(=O)(=O)N1CCC(C(=O)N2CCOCC2)CC1
  -25%, -27%
CCOc1ccc(-c2nonc2NC(=O)c2oc3ccc(C)cc3c2C)cc1OCC
  -11%, -9%
Cc1[nH]c2ccc(F)cc2c1CC(=O)NCC(c1ccccc1)N1CCCC1 (stereo not given)
  -1%, 13%
CCc1ccc(NC(=O)CN2C(=O)C(c3ccc(F)cc3)=NC2(C)C)cc1
  -1%, 20%
Cc1ccc(S(=O)(=O)N2CCN(C(=O)c3c(-c4c(F)cccc4Cl)noc3C)CC2)cc1C
  3%, 7%
C=CCn1c(C)cc(C(=O)Cn2c(=O)c3c(ncn3CC)n(Cc3ccccc3)c2=O)c1C
  -7%, 0%
Cc1ccc2c(c1C)NC(=O)CC2c1cc2c(cc1Br)OCO2 (stereo not given)
  7%, -6%
CC(C)Cc1c(C(C)C)sc(N)c1C#N
  0%, 9%
Cc1cccc(C)c1N(C)S(=O)(=O)c1ccc2c(c1)C(=O)Nc1cc(Cl)ccc1O2
  -5%, 2%
CC(=O)N/N=C/c1ccccc1OCCCOc1ccc(Cl)c(C)c1
  -23%, 116%[activator]
CC1CCN(S(=O)(=O)c2ccc3nc(Nc4cccc(F)c4)ccc3c2)CC1
  290%[activator], -11%
Cc1cc(C)c(NC(=O)C(C)n2nnc3sc4c(c3c2=O)CCCC4)c(C)c1 (stereo not given)
  5%, 19%
CC/C=C(/C)C(=O)NCc1cccc(CN2CCOC(C)C2)c1 (stereo not given)
  -4%, 0%
Cc1nn(CC(=O)NCCc2ccc(Cl)cc2)c(=O)c2cc3cc(F)ccc3n12
  -2%, -9%
Cc1cc(OCC(=O)NC(Cc2c[nH]c3ccccc23)C(=O)O)ccc1Cl (stereo not given)
  -14%, -1%
CCOC(=O)c1c(-c2ccccc2)oc2ccc(NS(=O)(=O)c3ccccc3)cc12
  112%[activator], -12%
CCOc1ccc(/C=C/C(=O)Nc2ccc3nc(N(CC)CC)cc(C)c3c2)cc1OC
  -26%, -27%
Cc1ccc(NC(=O)N2CCN(Cc3nc4ccc(C)cc4o3)CC2)c(Cl)c1
  -14%, -12%
COc1ccc2cc(CNC(=O)CNC(=O)c3ccc(C(F)(F)F)cc3)ccc2c1
  5%, 0%
CCN(CC)CCNC(=O)c1nn(-c2ccc(OC)c(Cl)c2)c(=O)c2c1c1ccccc1n2C
  -12%, -19%
CCC1(C)Cc2c(sc3nc(SCC(=O)c4ccccc4)nc(N)c23)CO1 (stereo not given)
  3%, ?
CNC(=S)N/N=C/c1ccccc1[N+](=O)[O-]
  22%, 62%[activator]
COc1ccc(-c2nsc(NC(=O)c3cccc(OC)c3)n2)cc1
  ?, -26%
CC(N)c1cccc(NS(C)(=O)=O)c1 (stereo not given)
  -5%, -13%
CCOc1ccc(OCC)c(NS(=O)(=O)c2cc(-c3cnc(C)o3)ccc2OC)c1
  236%[activator], -22%
Cc1nn(C)c(C)c1C(=O)NCc1cccnc1N1CCOCC1
  -3%, -5%
CC1=C(c2ccc(C)c(C)c2)S(=O)(=O)NC1=NC(C)C12CC3CC(CC(C3)C1)C2 (stereo not given)
  1%, -1%
COc1ccc(Nc2nc3ccccc3nc2NS(=O)(=O)c2cccc(Cl)c2)c(OC)c1
  20%, 3%
O=C(Nc1cccc(F)c1)c1nn(Cc2ccccc2)c(=O)c2ccccc12
  21%, 16%
COc1ccc(N(CC(=O)Nc2cc(OC)cc(OC)c2)S(=O)(=O)c2c(C)noc2C)cc1
  -12%, -27%
COc1cc(C(=O)Nc2ccc(NC(=O)c3ccc(C(C)(C)C)cc3)cc2)cc(OC)c1OC
  -15%, -7%
COc1ccc(NC(=O)CSc2c3c(nc4ccc(Cl)cc24)CCCC3)cc1Cl
  67%[activator], 15%
CCOC(=O)c1cccc(NC(=O)c2ncoc2-c2ccc(OC)c(OC)c2)c1
  4%, 7%
COc1ccccc1N(C)C(=O)C1CCN(c2nc3ccccc3o2)CC1
  -20%, -7%
O=c1cc(-c2ccccc2)n2c(SCc3cccc([N+](=O)[O-])c3)nnc2[nH]1
  7%, 0%
Cc1nc(S(=O)(=O)N2CCC(C(=O)N3CCN(c4ccc(Cl)cc4)CC3)CC2)cn1C
  -3%, -2%
Cc1noc(C)c1C(C)C1=CCCCC1 (stereo not given)
  -6%, -10%
Cc1nc(C(C)C)sc1C(=O)NCc1ccccc1
  -30%, -10%
COc1cccc(-c2cc(C(=O)Nc3ccc4c(c3)OCO4)no2)c1
  0%, 5%
CCn1cc(S(=O)(=O)N2CCCC(C(=O)NCc3nn(CC)cc3Cl)C2)c(C)n1 (stereo not given)
  0%, 2%
Cc1ccc(C)c(CN2C(=O)C3(c4ccccc42)N(c2cccc(C(F)(F)F)c2)C(=O)CS3(=O)=O)c1 (stereo not given)
  17%, 12%
CCCNC(=O)c1ccc2nc(CC)c(CC)nc2c1
  9%, 21%
CC(=O)c1cccc(NC(=O)C23CC4CC(CC(Cl)(C4)C2)C3)c1
  23%, 0%
CN1CCN(CCCNC(=O)Cn2c(-c3cccs3)cc3ccccc32)CC1
  -23%, -20%
O=C1/C(=C\c2ccc(F)cc2)N2CCC1CC2
  4%, 5%

Complete entries from above. Order of screens: 2A Renilla	StopGo FLuc
CCOc1ccc(/C=C/C(=O)Nc2ccc3nc(N(CC)CC)cc(C)c3c2)cc1OC in the list: -26%	-27%
CCCNC(=O)c1ccc2nc(CC)c(CC)nc2c1 in the list: 9%	21%
COc1ccc2cc(CNC(=O)CNC(=O)c3ccc(C(F)(F)F)cc3)ccc2c1 in the list: 5%	0%

Going on with the list:
Below each SMILES: 2A Renilla, StopGo FLuc
ON=C1CCCCCCCCCCC1
  7%, 3%
COc1ccc2c(c1)sc1ncc(C(=O)NCc3ccccc3F)c(=O)n12
  -8%, -2%
OC[C@H]1O[C@@H](O[C@@H]2[C@@H](CO)O[C@](O)(CO)[C@H]2O)[C@H](O)[C@@H](O)[C@H]1O
  -18%, -16%
CC(C)c1ccc2cc(C(=O)NCC3CCS(=O)(=O)C3)[nH]c2c1 (stereo not given)
  68%[activator], 50%[activator]
Cc1ccc(CSc2nc3cc(C(=O)NC4CCCC4)ccc3c(=O)n2Cc2ccccc2)cc1
  -19%, -14%
Cc1ccc(C)c(N2CCN(C(c3ccc(F)cc3)c3nnc(-c4ccccc4)o3)CC2)c1 (stereo not given)
  7%, 5%
Cc1cccc(NC(=O)CSc2ncc3c(n2)-c2cc(Cl)ccc2N(C)S3(=O)=O)c1C
  -16%, -21%
CCCc1cc(=O)[nH]c(SCC(=O)N2CCN(S(=O)(=O)c3cc(C)ccc3C)CC2)n1
  -6%, -3%
N#Cc1ccc(OC(=O)c2occc2COc2ccccc2)cc1
  -4%[1.06 µM], 24%
COC(=O)c1ccc(CN(C)C(=O)C(C)(C)C)cc1
  8%, 68%[activator]
CCc1ccccc1NC(=O)c1ccc2c(c1)NC(=O)CS2
  15%, 49%
CCc1c(C)sc(NC(=O)Cc2ccccc2)c1C#N
  11%, 0%
O=C(CC1CCCC1)NCc1ccccn1
  4%, 18%
CC(Oc1ccccc1)C(=O)Nc1ccccc1C(=O)OCc1cc(=O)n2nc(C3CC3)sc2n1 (stereo not given)
  -8%, 6%
CC(=C(CCOC(=O)C(C)C)SSC(CCOC(=O)C(C)C)=C(C)N(C=O)Cc1cnc(C)nc1N)N(C=O)Cc1cnc(C)nc1N
  2%, -2%
COc1ccc(CNC(=O)c2ccc3nc(CCc4ccccc4)oc3c2)cc1
  -6%, 84%[activator]
O=C(Cn1ncc2ccccc2c1=O)Nc1ccc(F)cc1F
  -4%, 1%
Cc1ccc(C(=O)Nc2ccc(S(=O)(=O)N(Cc3ccccc3)c3ccccc3)cc2)cc1
  ?, ?
